# Screening data as filed in PubChem.
# gsp ag – activates gsp, the McCune-Albright syndrome mutation; gsp mutant cells, cAMP HTRF, 30 min; control for the full effect not named in the record; Potency, µM (top dose mostly 76.9 µM), for the others: at the top dose activation (cAMP increase), actives largely listed as activators; 340,000 compounds, 0.13% hits; active = well fitted activation curve with a large enough effect; inconclusive = small, poorly fitted or top-dose-only effect, or another doubt; inactive = no such curve, though single readings can be large or run the other way; cell line not stated here;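 further: phosphodiesterase inhibitor Ro 20-1724 added with compounds to block cAMP breakdown; potency means the concentration at half of the fitted maximal effect; nearly all actives have a fitted effect of over 60% in size; about a fifth of the inactives were tested at one dose only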
#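 Cells stably selected in G418 were plated at 2000/well, grown 16-24 hr, then given compounds in DMSO with the PDE inhibitor […] (300 uM solution added) for 30 min at 37C; cAMP was read by HTRF.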
# ClpP mod – qHTS Assay for Activators of ClpP. ATP-dependent Clp protease proteolytic subunit (Bacillus subtilis (strain 168)), P80244. purified B. subtilis ClpP, FRET peptide cleavage, 20 min. Potency, µM (doses to about 57.5 µM), for the others: at the top dose activity change, negative = active. 340,000 compounds, 1.9% hits; active = well fitted falling curve with a large enough effect; inconclusive = small, poorly fitted or top-dose-only effect; inactive = no such curve, though single readings can be large or run the other way; further: potency means the concentration at half of the fitted maximal effect; the source files actives as falling curves though it sought activators and does not explain the sign; nearly all actives have a fitted effect of over 65% in size; many hits overshoot -100%
# Target sequence (P80244 whole entry, looked up): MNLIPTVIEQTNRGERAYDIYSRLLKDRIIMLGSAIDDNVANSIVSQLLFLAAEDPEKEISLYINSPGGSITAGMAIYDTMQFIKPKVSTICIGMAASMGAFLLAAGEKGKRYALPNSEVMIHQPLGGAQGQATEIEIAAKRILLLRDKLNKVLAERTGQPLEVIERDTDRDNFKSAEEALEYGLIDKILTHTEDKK
#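 Buffer: 100 mM Tris/HCl pH8, 100 mM KCl, 0.05% low protease BSA, 2.5% glycerol, 0.01% Tween-20. ClpP 10 microg/mL final; 20 min RT; delta FRET normalized to ADEP and DMSO controls.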
# TRPV1 potentiator – potentiators of human vanilloid receptor 1 (TRPV1); Q8NER1; TRPV1-expressing cells, Fluo-8 calcium influx, capsaicin EC20 potentiation; host cell line not named in the record; control for the full effect not named in the record; potentiation, % at 8.33 µM; 320,000 compounds, 0.02% hits; AID 540277; active means potentiation above 80%; inconclusive means 30% to 80%; inactive means below 30%; further: 0% is about no effect
# Target sequence (Q8NER1 whole entry, looked up): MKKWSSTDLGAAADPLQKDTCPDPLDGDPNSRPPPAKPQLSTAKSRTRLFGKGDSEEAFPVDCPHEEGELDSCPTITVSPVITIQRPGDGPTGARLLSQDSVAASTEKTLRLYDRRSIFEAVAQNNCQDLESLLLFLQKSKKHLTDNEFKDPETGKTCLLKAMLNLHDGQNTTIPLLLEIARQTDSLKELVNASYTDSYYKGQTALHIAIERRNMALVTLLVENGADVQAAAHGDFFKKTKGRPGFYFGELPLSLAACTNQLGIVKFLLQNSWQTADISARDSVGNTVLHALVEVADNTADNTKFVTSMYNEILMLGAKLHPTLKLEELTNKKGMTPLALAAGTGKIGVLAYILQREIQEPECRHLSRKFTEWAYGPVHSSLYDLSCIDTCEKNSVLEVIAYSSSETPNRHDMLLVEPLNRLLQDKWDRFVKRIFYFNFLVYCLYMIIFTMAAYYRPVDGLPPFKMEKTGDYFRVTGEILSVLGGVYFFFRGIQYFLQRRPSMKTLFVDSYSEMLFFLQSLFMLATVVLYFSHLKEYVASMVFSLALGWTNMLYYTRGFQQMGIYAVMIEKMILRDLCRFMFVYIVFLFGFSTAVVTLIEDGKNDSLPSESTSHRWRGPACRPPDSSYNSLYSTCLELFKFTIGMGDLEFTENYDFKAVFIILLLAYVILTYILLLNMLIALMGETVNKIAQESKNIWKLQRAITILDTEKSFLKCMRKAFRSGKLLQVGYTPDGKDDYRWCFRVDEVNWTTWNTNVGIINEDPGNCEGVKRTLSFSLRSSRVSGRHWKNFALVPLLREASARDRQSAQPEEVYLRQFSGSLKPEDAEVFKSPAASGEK
#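 Cells expressing TRPV1 were dye-loaded with Fluo-8 and read kinetically: 10 s baseline, 3 min after compound (agonist portion), then 2 min after EC20 capsaicin (allosteric enhancer portion). Calcium-bound dye fluorescence at 480/520 nm.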
# gsp antag – gsp mutant antagonism | gsp-mutant cells, cAMP HTRF, 30 min; control for the full effect not named in the record | Potency, µM (titrated, usually from 76.9 µM), for the others: top-dose activity change, negative = inhibition, usual class: inhibitors | 340,000 compounds, 0.4% hits | AID 624288; active = falling curve of any shape with a large fitted effect; inconclusive = falling curve, mostly with a smaller effect; inactive = flat or rising curve; cell line not stated here;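 further: intracellular cAMP measured with PDE inhibitor Ro 20-1724 present during compound exposure; potency means the concentration at half of the fitted maximal effect; on the % scale 0 is the no-effect control and ±100 the full control effect; nearly all actives have a fitted effect of over 65% in size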
#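 Cells in G418 medium, seeded 16-24 h, 37C; buffer exchange to DPBS + 1 mM CaCl2, 0.5 mM MgCl2, 0.05% BSA; cpds in DMSO + […] (300 uM stock), 30 min 37C; HTRF cAMP detection.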
# Sfp PPTase inh – blocks B. subtilis Sfp PPTase activity | Q9F4F7 | Biochemical Sfp PPTase activity, qHTS | Potency, µM, for inactives: max response, negative = inhibition, most hits filed as inhibitors | 310,000 compounds, 3.5% hits | AID 1490; active means well fitted inhibition curve with a large enough effect; inconclusive means small, poorly fitted or top-dose-only effect, or another doubt; inactive means no such curve, though single readings can be large or run the other way;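 further: the enzyme is Sfp with the accession as filed and its product quenches rhodamine fluorescence; potency means the concentration at half of the fitted maximal effect; 0% = enzyme reaction without inhibitor and -100% = no enzyme wells; top concentration of the series not given in the record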
#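 Fluorescence-quenching assay: 15 nM Sfp-PPTase preincubated 15 min at room temperature with compound, then 5 uM rhodamine-CoA and 12.5 uM BHQ-2-labelled YbbR peptide added. Fluorescence (ex 525/em 598 nm) read at start and after 30 min; difference gives rate.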
# Menin-MLL FL inh – displaces fluorescein MLL peptide from human menin | 290,000 tested, under 10 active | FP activity change, % at 61.4 µM | Fluorescence polarization, fluorescein-MLL peptide displacement from menin; inconclusive = falling polarisation curve, or a change in total fluorescence; inactive = total fluorescence flat and polarisation flat or rising; no compound was filed as active; the % refers to the polarisation; negative = inhibition;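 further: % of control where 0% means no effect; inhibitors lower the polarisation; unlabelled MLL peptide was the positive control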
# CtBP-E1A inh – inhibitors of CtBP/E1A interaction. 340,000 compounds, 0.49% hits. AlphaScreen GST-E1A/His-CtBP binding, 1536-well; hits give low values; control for the full effect not named in the record. activity change, % (no concentration beside the values); in the data active means activity change below about -65%; inconclusive means about -30% to -65%; inactive means above about -30%; further: on the % scale 0 is the no-effect control and ±100 the full control effect
#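 Protein mix (5X: 125 nM each GST-E1A, His-CtBP) was incubated with pinned compound 2 h at 37 deg C in dark, in 50 mM Tris pH 8.0 buffer with 300 mM NaCl. Glutathione donor and nickel acceptor beads followed; AlphaScreen signal read after 1 h.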
# * = called active by the depositor; ? = inconclusive; · = no result given; [ ] = remark or other dose.
SMILES,gsp ag,ClpP mod,TRPV1 potentiator,gsp antag,Sfp PPTase inh,Menin-MLL FL inh,CtBP-E1A inh
CCOC(=O)c1nc(Nc2ccc(C)cc2)c2ccccc2n1,-4%,0.5%,-9,-17%,2%,-1.9,-7
COc1ccc(C)cc1NC(=O)NCc1ccccn1,-20%,-0.8%,2,5%,19%,0.9,·
O=C(CCc1nnc(Cc2c[nH]c3ccccc23)o1)NCC1CC12CCCCC2 (centres undefined),1%,·,9,-6%,-10%,0.1,-5
CC1OC2(C)OC(=N)C1(C#N)C(C#N)(C#N)C2c1ccccc1 (centres undefined),2%,25µM*,-35,-14%,-3%,2.5,-12
COc1cc(C)nc(NC(=O)COc2ccc(Cl)cc2C)n1,1%,0.4%,11,17%,9%,2.3,0
Nc1c(-c2ccccc2Cl)cnn1-c1cccc([N+](=O)[O-])c1,-5%,1.1%,-19,4%,?,-0.8,17
CC(=O)c1ccc(S(=O)(=O)NCC2(N3CCOCC3)CCCCC2)cc1,-4%,0.9%,26,0%,·,·,·
Nc1nc(-c2ccccc2)cc(-c2ccccc2O)n1,15%,-0.7%,-3,3%,-5%,-0.6,18
COc1ccc(CC2(C)OC(c3ccc([N+](=O)[O-])cc3)=NN2C(C)=O)cc1 (centres undefined),-15%[15.4 µM],1.8%,·,-14%,-8%,1.2,1
COCCC(=O)Nc1ccc2c(c1)CN(C(=O)CCOC)CC2,1%,·,-21,11%,0%,-5.9,0
Cc1cccc(C)c1NC(=O)CSc1nnc(NC(=O)C2CC2)s1,22%[15.4 µM],·,-50,-15%,1%,-3.8,-1
CCOC(=O)c1ccc(NC(=O)CCNC(=O)c2ccc([N+](=O)[O-])cc2)cc1,-26%,-0.9%,7,-2%,8%,3.4,4
CC(=O)Oc1ccc2nc(-c3ccc(Br)o3)oc(=O)c2c1,-18%,·,4,-9%,-1%,0.8,-8
C#CCOCCOCCOCCNc1nc(N2CCN(C(=O)C([C@@H](C)CC)n3cc(C(N)COC(=O)C(F)(F)F)nn3)CC2)nc(N2CCN(C(=O)[C@H](Cc3cc4ccccc4[nH]3)n3cc(C(N)CO)nn3)CC2)n1 (some centres undefined),4%,-5.3%,·,8%,·,·,-29
CCOC(=O)c1sc(N)c(C(=O)OCC)c1C,-6%[15.4 µM],1.1%,-18,14%,1%,1.9,7
CCOC(=O)C1=C(COC(=O)c2ccccc2OC)NC(=O)NC1C (centres undefined),-1%[15.4 µM],·,-16,14%,·,·,-5
O=C(Nc1ccccc1O)/C(=C\c1ccccc1)NC(=O)c1ccccc1,-29%,-1.9%,8,8%,13%,-0.2,-13
COc1ccccc1C1SCCN1S(C)(=O)=O (centres undefined),27%,-1.1%,·,3%,6%,2.6,0
CCOc1ccc(N2C(=O)CC(Sc3nc4ccc(OCC)cc4s3)C2=O)cc1 (centres undefined),0%,-2.0%,·,-6%,·,·,-4
Cc1cc(C)c2cc(C)c3nnc(SCC(=O)NCc4ccc5c(c4)OCO5)n3c2c1,-2%,-21%,4,-9%,?,0.1,?
Cc1cc(C(=O)NNC(=S)NCc2ccco2)n(C)n1,-5%,-2.9%,27,14%,7%,5.7,-9
O=c1c(-c2ccccc2)n[nH]c2ccccc12,0%,-15%,7,-7%,16%,1.8,0
CC(C)c1ccc(/C=C/C(=O)n2nnc3ccccc32)cc1,19%,-24%,-17,-11%,-26%,3.4,?
C=CCn1ccc(=O)nc1SC,2%,·,·,12%,·,·,0
CCOC(=O)Cc1nn(Cc2ccc(Cl)cc2)c(=O)c2ccccc12,-18%,-1.7%,-16,6%,0%,-0.3,·
Clc1ccc(C=NNc2ccccn2)c(Cl)c1,2%,3.3%,·,0%,·,·,3
COc1ccc(CC(NC(C)=O)C(=O)NC2CCN(c3nc(C)cc(C)c3C#N)CC2)cc1 (centres undefined),11%,3.7%,-17,5%,25%,2.3,·
COC(=O)C1=C(O)/C(=C/c2ccc(OCC(=O)Nc3ccccc3)cc2)N=C1C,-23%,1.3%,20,-8%,14%,·,-5
Cc1ccc(S(=O)(=O)NCCC(=O)OCC(=O)NCCc2ccccc2)cc1C,-43%[inhibitor],-2.3%,-8,-2%,·,·,-6
O=C(O)COc1ccc(/C=N/NC(=O)C(O)(c2ccccc2)c2ccccc2)cc1,-14%[15.4 µM],1.0%,25,-14%,4%,3.3,3
O=C(COc1coc(CN2CCc3ccccc3C2)cc1=O)Nc1cccc(F)c1,3%[15.4 µM],2.0%,-19,-15%,·,·,-2
COc1cc(/C=N/NC(=O)c2sc(N)c(C#N)c2C)ccc1O,?,?,4,-6%,0%,1.6,-83*
CCOC(=O)c1c(C)c(C(=O)Nc2ccc3c(c2)OCCO3)c(C)n1C,11%,-0.3%,-12,4%,-6%,3.0,-4
CCn1c(Cc2ccccc2)nnc1SCc1nc2ccccc2c(=O)[nH]1,1%,-0.3%,8,-6%,-5%,1.9,0
CCOC(=O)C1CCN(C(=O)c2cc(C)n(C(C)(C)C)n2)CC1,40%,·,-2,0%,-9%,2.8,-16
COCCN(C(=O)COC(=O)CCS(=O)(=O)c1ccccc1)c1c(N)n(Cc2ccccc2)c(=O)[nH]c1=O,11%[15.4 µM],·,-21,7%,·,·,-5
Cc1c(Cl)cccc1N1C(=O)CC(NNC(=O)c2ccc3c(c2)OCO3)C1=O (centres undefined),2%,-1.1%,·,-4%,·,·,6
CC(CN1CCCC1)OC(=O)C(c1ccccc1)c1ccccc1 (centres undefined),1%,0.5%,?,6%,-6%,-5.2,0
CSc1ccccc1NC(=O)c1cc2ncc(Br)cn2n1,29%,-8.3%,-4,-2%,?,1.6,0
COC(=O)c1ccc(Cl)c(NC(=O)CN(c2ccc(OC)c(OC)c2)S(C)(=O)=O)c1,?,-1.2%,3,-13%,8%,0.2,12

# 4 compounds picked at random from those above:
SMILES,gsp ag,ClpP mod,TRPV1 potentiator,gsp antag,Sfp PPTase inh,Menin-MLL FL inh,CtBP-E1A inh
COc1cc(/C=N/NC(=O)c2sc(N)c(C#N)c2C)ccc1O,?,?,4,-6%,0%,1.6,-83*
COC(=O)c1ccc(Cl)c(NC(=O)CN(c2ccc(OC)c(OC)c2)S(C)(=O)=O)c1,?,-1.2%,3,-13%,8%,0.2,12
CC(CN1CCCC1)OC(=O)C(c1ccccc1)c1ccccc1 (centres undefined),1%,0.5%,?,6%,-6%,-5.2,0
CCn1c(Cc2ccccc2)nnc1SCc1nc2ccccc2c(=O)[nH]1,1%,-0.3%,8,-6%,-5%,1.9,0

# Next results
SMILES,gsp ag,ClpP mod,TRPV1 potentiator,gsp antag,Sfp PPTase inh,Menin-MLL FL inh,CtBP-E1A inh
CC(=O)Cn1c(N2CCC(Cc3ccccc3)CC2)nc2c1c(=O)[nH]c(=O)n2C,-37%[inhibitor],1.4%,-2,-5%,-9%,0.4,-1
CCCNC(=O)c1cc(Cl)c(NC(=O)C2=CSCCO2)cc1OC,-8%,5.1%,-12,-11%,3%,·,-4
COc1ccc(CN2CCN(CCCc3ccccc3)C(CCO)C2)c(OC)c1 (centres undefined),25%,-2.2%,-2,10%,-1%,0.2,-13
Fc1cccc(CCN2CCNC[C@H]2Cc2cccc3ccccc23)c1,-6%,0.4%,-33,15%,·,·,12
O=C(NC1CCCN(Cc2ccc(Cl)cc2)C1)c1cccc(F)c1 (centres undefined),5%,-0.1%,-7,1%,24%,-4.2,-8
Cc1cccnc1CCNCc1c(C(=O)N2C[C@@H](C)O[C@@H](C)C2)nc2ccc(Cl)cn12,-22%,-8.8%,-1,-4%,4%,·,-4
CCSCC(C)(C)n1[nH]c2ccccc2c1=O,-55%[inhibitor],-25%,·,·,·,·,-2
COc1ccc2cc(Br)ccc2c1CC(=O)NC1CC(C)(C)NC(C)(C)C1,?,-1.3%,11,10%,7%,2.5,-2
Cc1[nH]n(-c2ccccc2)c(=O)c1/C=C1\C=NN=C1c1ccccc1,-3%[15.4 µM],·,12,?,-2%,-3.7,1
CCOC(=O)C1CCN(C(=O)Nc2cccc(Cl)c2)CC1,0%,1.2%,-3,-6%,-1%,5.7,-12
Nc1ccc(S(=O)(=O)NC2(C(F)(F)F)NC(=O)N(c3ccccc3F)C2=O)cc1 (centres undefined),-5%[15.4 µM],·,2,-15%,23%,·,-2
Cc1cc(C(=O)Nc2ccc(S(=O)(=O)N3CCCC3)cc2)no1,0%[15.4 µM],0.3%,-13,0%,20%,0.2,-1
COc1ccccc1N1CCN(C(c2cccs2)C(C)NC(=O)C(=O)N2CCCCC2)CC1 (centres undefined),-16%,-4.8%,-19,0%,-3%,·,-16
COc1ccc(NC(=O)CCCc2ccccc2)c(OC)c1,-42%[inhibitor],-3.0%,1,6%,12%,-3.6,·
COc1ccc(NC(=O)NCCCN2CCc3ccccc3C2)cc1,-74%[inhibitor],0.3%,-23,4%,-23%,1.7,0
CCC(Oc1ccccc1)C(=O)Nc1ccccn1 (centres undefined),2%[15.4 µM],-2.6%,-14,4%,-5%,-3.6,6
CC1CC(C)(C)N(C(=O)CN2CCN(C)CC2)c2ccccc21 (centres undefined),-11%,-1.5%,10,6%,?,-7.5,-8
Cc1ccc(C)c(NC(=O)COC(=O)c2ccc(S(=O)(=O)N3CCCC3)cc2)c1,-88%[inhibitor],-2.4%,·,·,·,·,-4
Cc1ccc(/C=N/NC(=S)Nc2cccc(S(=O)(=O)N(C)C)c2)o1,8%,-3.1%,7,-20%,8%,0.7,-9
CCc1cc(C(=O)N2CCCC(CCC(=O)N3CCN(c4ccccn4)CC3)C2)no1 (centres undefined),0%[15.4 µM],·,15,-4%,6%,-1.3,4
Cc1ccc(/C=N/NC(=O)c2cccc(S(=O)(=O)Nc3ccccc3Cl)c2)s1,-7%,-5.5%,7,-30%,0%,6.9,?
Cc1[nH]c2ccccc2c1SCC(=O)O,-14%,0.6%,-6,8%,5%,12,3
O=C(NCc1cc([N+](=O)[O-])ccc1O)c1cccc(NS(=O)(=O)c2ccccc2)c1,1%,-0.8%,-6,-18%,-2%,·,-89*
CCc1ccc(C(=O)CSc2n[nH]c(-c3ccncc3)n2)cc1,-60%[inhibitor],0.2%,?,-24%,-14%,13,1

# Not a hit list (roughly 5.3% active in at least one column).
